# hNpr1 antagonist: blocks ANP-stimulated signaling of human Npr1 receptor | HEK293 hNpr1 GloSensor cGMP, ANP-stimulated luminescence | Potency, µM (highest dose often 46.3 µM), for the others: at the top dose activity change, negative = inhibition, most hits filed as inhibitors | actives 1.6% (n = 76,000) | AID 1347048; active = well fitted inhibition curve with a large enough effect; inconclusive = small, poorly fitted or top-dose-only effect; inactive = no such curve, though single readings can be large or run the other way;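 note: nearly all actives have a fitted effect of over 60% in size; nearly all hits also lower the signal before the agonist is added; a reference antagonist and vehicle were the controls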
# Target sequence (P16066 whole entry, looked up): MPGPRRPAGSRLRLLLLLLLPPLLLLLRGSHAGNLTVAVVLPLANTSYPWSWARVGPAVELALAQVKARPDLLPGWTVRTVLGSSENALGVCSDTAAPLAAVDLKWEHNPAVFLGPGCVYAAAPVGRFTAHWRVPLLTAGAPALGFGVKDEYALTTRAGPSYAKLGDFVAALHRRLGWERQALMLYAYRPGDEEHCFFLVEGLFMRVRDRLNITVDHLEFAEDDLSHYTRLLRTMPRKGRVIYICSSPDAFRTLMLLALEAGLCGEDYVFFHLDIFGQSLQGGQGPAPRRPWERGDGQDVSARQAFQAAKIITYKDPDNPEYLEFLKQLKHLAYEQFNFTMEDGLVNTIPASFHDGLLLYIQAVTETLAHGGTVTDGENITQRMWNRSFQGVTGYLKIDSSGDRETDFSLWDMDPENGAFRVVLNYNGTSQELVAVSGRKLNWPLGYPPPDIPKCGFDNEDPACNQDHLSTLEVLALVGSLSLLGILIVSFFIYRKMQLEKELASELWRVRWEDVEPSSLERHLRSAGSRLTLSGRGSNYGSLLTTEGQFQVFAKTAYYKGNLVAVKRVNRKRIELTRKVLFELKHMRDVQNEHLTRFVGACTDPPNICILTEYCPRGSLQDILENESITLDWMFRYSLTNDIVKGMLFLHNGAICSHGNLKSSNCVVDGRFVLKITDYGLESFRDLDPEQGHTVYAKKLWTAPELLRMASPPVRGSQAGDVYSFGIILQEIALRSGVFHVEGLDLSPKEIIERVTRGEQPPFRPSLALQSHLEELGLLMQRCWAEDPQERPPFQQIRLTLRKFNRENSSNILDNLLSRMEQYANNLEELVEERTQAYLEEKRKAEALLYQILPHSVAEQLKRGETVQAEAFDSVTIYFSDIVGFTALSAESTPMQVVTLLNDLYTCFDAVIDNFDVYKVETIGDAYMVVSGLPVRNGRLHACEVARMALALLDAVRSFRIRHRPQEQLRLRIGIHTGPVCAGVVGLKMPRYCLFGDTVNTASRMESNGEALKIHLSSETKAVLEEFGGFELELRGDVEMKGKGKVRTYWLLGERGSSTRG
#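 HEK293 cells stably expressing human Npr1 and cGMP GloSensor pGS-40F, loaded 2 h with 2% GloSensor reagent, given compound 30 min at room temperature. Luminescence read before and 20 min after 0.1 nM hNppA.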
# Starred values were filed as active, the others as inactive; ? = inconclusive; [ ] = remark or other dose. % is set by controls: 0 for no effect and ±100 for the full control effect; potency is the fitted concentration of half-maximal effect. This is a subset; rates above refer to the full screens.
SMILES,hNpr1 antagonist
O=C(c1ccccc1OCC1CCCN(Cc2cccc(O)c2)C1)N1CCCC1 (stereo unspecified),0%
O=C(c1ccccn1)N1CCn2c(nnc2-c2ccccc2)C1,0%[70.6 µM]
O=C(c1nc(-c2ccsc2)c2cnccn12)N1CCCC1,14%[70.6 µM]
Cc1cc(C)nc(N2C[C@H]3OC(=O)N(CCc4cccc(Cl)c4)[C@H]3C2)n1,5%
O=C(c1ccccc1F)N1CCc2nc(C3CC3)nc(-c3ccc(Cl)cc3)c2CC1,0%
Cc1cnc(CCNC(=O)Cc2ccccc2)n1CC1CC1,-16%
CN1C[C@@H]2CCCN3CCC[C@@H]([C@H]23)[C@H]1CCCC(=O)NCCCN1CCOCC1,-4%
CS(=O)(=O)N1CCC(CC(=O)NCCCN2CCc3ccccc3C2)C1 (stereo unspecified),13%
O=C(N[C@@H]1CN(Cc2ccc(Br)o2)C[C@H]1CO)C1CC1,-16%
CN(C)C(=O)C1CN(c2ccccc2)C(=O)N1 (stereo unspecified),-4%[70.6 µM]
O=C(CCc1ccccc1)N1CCC(Oc2ccc(C(=O)N3CCOCC3)cn2)CC1,-7%
COc1ccc2nc3n(c2c1)[C@@H](CNC(=O)c1ccc(F)cc1)COC3,1%[70.6 µM]
CN(C1CCOCC1)C1CCN(C(=O)c2ccccn2)CC1,6%
Cc1ccc(S(=O)(=O)N2CCCC(CCC(=O)NC3CCS(=O)(=O)C3)C2)cc1 (stereo unspecified),?
Cn1nc2n(c1=O)CCC(NC(=O)NCc1ccco1)CC2 (stereo unspecified),4%
CCn1c(=O)c2c(cc(C)n2C)n(CC(=O)Nc2ccc(C)cc2C)c1=O,3%
Cc1nsc(NC(=O)NC(C)c2ccc(Cl)cc2)n1 (stereo unspecified),-1%
CCOc1ccccc1CN1CCC2(CCN(C(=O)N(C)C)CC2)Oc2ccccc21,-8%
Cc1noc(-c2ccccc2Cl)c1C(=O)NCCCOC(C)C,-6%
CN(Cc1cccc2ncccc12)C(=O)CN1CCOC1=O,10%

# Some of these compounds in order of heavy-atom count, ascending.
SMILES,hNpr1 antagonist
O=C(c1nc(-c2ccsc2)c2cnccn12)N1CCCC1,14%[70.6 µM]
CN(Cc1cccc2ncccc12)C(=O)CN1CCOC1=O,10%
COc1ccc2nc3n(c2c1)[C@@H](CNC(=O)c1ccc(F)cc1)COC3,1%[70.6 µM]

# (cont.)
SMILES,hNpr1 antagonist
O=C(NCCC1CCN(C(=O)Nc2ccc(F)cc2F)CC1)c1ccccc1,-2%
Cc1ccc(CN2CCc3oc(C)c(C(=O)NCCN4CCN(C)CC4)c3C2)cc1,1%
N#CC1CCN(Cc2ccccc2OCC(O)CN2CCCCC2)CC1 (stereo unspecified),-9%
Cc1cc(C(=O)N2CCCC(c3nc(-c4cccnc4)no3)CCNC(=O)CC2)n(C)n1 (stereo unspecified),5%
CC(=O)N1CCN(CC[C@H]2CN(C(=O)c3ccc(N(C)C)cc3)CC[C@H]2CC(=O)O)CC1,-1%
CCc1noc(-c2cccn3c(CNC(=O)c4ccccc4Cl)nnc23)n1,-18%
O=C(c1ccncc1)N1CCCCC1c1nc(CCOc2ccc(F)cc2)no1 (stereo unspecified),5%
Cn1cccc1CN1CCCC2(CNc3ccccc3[S+](=O)([O-])N2)C1 (stereo unspecified),3%
Cc1nn(Cc2ccccc2)c(C)c1[C@@H]1C=C[C@@H](NC(=O)CCC(=O)O)C1,-9%[70.6 µM]
COc1ccc(C)cc1NC(=O)CC[C@H]1NC(=O)c2ccccc2NC1=O,-1%
Cc1cccc(C(=O)N2CC(c3nnc(C(C)C)o3)C3(CCOCC3)C2)c1 (stereo unspecified),0%
O=S(=O)(N[C@H]1CO[C@H]2[C@@H]1OC[C@@H]2n1nnnc1-c1ccccc1)c1cccc2cccnc12,0%
C#CCNC(=O)[C@@H]1CCCN1[C@@H](C(=O)NC)c1ccccc1F,-6%[70.6 µM]
CC(C)=CCO[C@H]1CCOC[C@H]1NC(=O)CCc1ccc(=O)[nH]n1,9%
COC(=O)c1ccccc1NC(=O)N1CCC[C@@H](O)[C@H](NC(=O)c2ccc(OCc3ccccc3)cc2)C1,-13%
COc1cccc(CNC(=O)C2CN(c3cccc(Cl)c3)C(=O)N2)c1 (stereo unspecified),4%
COc1nccc(N2CCC(CC(=O)NCc3cccc(C(F)(F)F)c3)CC2)n1,?
COCCNC(=O)[C@H]1C[C@H](Oc2cccnc2)CN1C(=O)NCc1ccccc1,5%
COc1ccc2ccc(OCc3nc(C(=O)NC(C)c4n[nH]c(C)n4)co3)cc2c1 (stereo unspecified),11µM*
COc1ccc(CN2CCCn3nc(C)c(-c4ccccc4Oc4ccccc4)c32)cc1O,2.5µM*
COC1CN(c2cccc(F)c2)C12CCN(C(=O)COc1ccccc1)CC2 (stereo unspecified),-1%
CC(C)N1CCN(C(=O)c2csc(N3CCN(c4cccc(Cl)c4)CC3)n2)CC1,-25%
COc1ccc(CNC(=O)N2CCC(c3noc(-c4cccnc4)n3)C2)cc1 (stereo unspecified),3%
CCOc1ccc(NC(=O)COc2ccc(-c3nnc4n3CCCC4)cc2)cc1,-16%
Cc1ccccc1CC(=O)NCc1nnc2c(-c3nc(C(C)C)no3)cccn12,3%
O=C(c1cc(-c2ccc(F)cc2)nc2ccccc12)N1CCC(Cc2nncn2CC2CC2)CC1,-21%
CN(C)c1nc2c(c(=O)[nH]1)CCN(Cc1ccc(F)c(Cl)c1)CC2,0%
CCn1cnnc1CC1CCN(C(=O)c2cc(-c3ccc(F)cc3)nc3ccccc23)CC1,-19%
CC1(C(=O)NCc2ccncc2)CN(Cc2ccccc2)Cc2ccc(N3CCOCC3)nc21 (stereo unspecified),-6%
O=C(NCc1ccc(Cl)nc1)c1ccn2nccc2c1,11%[70.6 µM]
COC1CCC12CCN(C(=O)NC1CCCCC1)CC2 (stereo unspecified),4%
CC(C)NC(=O)c1ccccc1OCC1CCCN(Cc2ccc(Br)o2)C1 (stereo unspecified),-13%
CC(=O)NC[C@H]1CCN(Cc2cccc(Cl)c2)C[C@H]1N(C)C,2%
c1cncc(-c2nnc3n2CCN(Cc2ccsc2)C3)c1,-26%[70.6 µM]
COc1ccc(-c2cc(C[C@@H]3CC[C@H](O)[C@@H](CN(Cc4cccc(OC)c4)Cc4cccc(OC)c4)O3)no2)cc1,11µM*
CN(C)CCCC(=O)NC[C@@H]1CC[C@H]2C[C@@H]1C2(C)C,4%[70.6 µM]
Cc1ccsc1C(=O)NCc1nnc2ccc(-c3ccc(Cl)cc3)nn12,-3%
O=C(c1ccc(C2CCCNC2)cc1)N1CCC(N2CCCC2)CC1 (stereo unspecified),0%
Nc1ncccc1CN1CCCC12CCN(c1ccc(C(F)(F)F)cn1)CC2,-25%
C[S+](=O)([O-])Nc1cccc(-c2cc3c(ccn3Cc3ccncc3)c(N3CCOCC3)n2)c1,-6%
O=C(NCc1ccc(Cl)nc1)c1ccn2cncc2c1,17%[70.6 µM]
c1ccc(CNc2ncc(CN3CCC4(CCNCC4)CC3)cn2)cc1,1%
CC1(CCC(=O)N2CCC(Oc3ccccc3F)(C(=O)O)CC2)CC1,18%
COc1ccccc1C(=O)N1CCC(OC2CCN(C)CC2)CC1,1%
CN1C(=O)C(c2ccccc2)CC12CCN(C(=O)c1ccoc1)CC2 (stereo unspecified),-3%
COc1ccc(-c2ccnc3nc(C4CCC4)nn23)cc1OC,-1%
COCCN1CC(CO)C2(CCN(C(=O)Cc3cccc(F)c3)CC2)C1 (stereo unspecified),4%
O=c1[nH]c(C2CCCN(Cc3cccc4ccccc34)C2)nn1-c1ccc(Cl)cc1 (stereo unspecified),0%
Cc1cccc(=O)n1CCC(=O)N1CCCCC(N)C1 (stereo unspecified),1%
CCC(=O)N1C[C@@H]2CCCN3CCC[C@@H]([C@H]23)[C@H]1CCCC(=O)NC,2%
COc1ccc(CN2CCOc3nc(-c4cc5ccccc5o4)ncc3C2=O)cc1,?
c1ccc(CCc2nnc3n2CCNCC3)cc1,-2%
CC(C)c1nncn1C1CCN(S(=O)(=O)Cc2cccc(Cl)c2)CC1,2%
CCC(=O)C(=O)N1CCC2(CCCN(Cc3ccc(C(C)C)cc3)C2=O)C1 (stereo unspecified),-11%
Fc1ccc2c(c1)nc1n2[C@@H](CNC2CCC2)COC1,2%[70.6 µM]
COc1cccc(CN2CC(Oc3ccccc3C(=O)NC3CC3)C2)n1,-15%
CC(C)CCNC(=O)N1CCC(OC2CCN(S(C)(=O)=O)CC2)CC1,0%
O=C([C@@H]1C[C@H](Oc2ccccc2)CN1C(=O)c1cccs1)N1CCOCC1,6%
Cn1c(=O)c2ccnn2c2ccc(C(=O)Nc3ccc(N4CCOCC4)cc3)cc21,0%
CCC(=O)N1CCN(c2nc3c(s2)CC(C(=O)NCc2ccc(F)cc2)CC3)CC1 (stereo unspecified),?

# A run of entries taken from the entries so far:
SMILES,hNpr1 antagonist
O=C(NCc1ccc(Cl)nc1)c1ccn2cncc2c1,17%[70.6 µM]
c1ccc(CNc2ncc(CN3CCC4(CCNCC4)CC3)cn2)cc1,1%
CC1(CCC(=O)N2CCC(Oc3ccccc3F)(C(=O)O)CC2)CC1,18%
COc1ccccc1C(=O)N1CCC(OC2CCN(C)CC2)CC1,1%

# The results go on:
SMILES,hNpr1 antagonist
COc1ccccc1-n1nc(-c2c(C)nc3scc(CC(=O)NCc4ccco4)n3c2=O)cc1C,0%
CCn1nccc1C(=O)N1CCC(c2nc(C3CCOCC3)no2)CC1,-10%
CC(=O)N1CCC(C(=O)N2CCN3C(=O)CNC(=O)[C@H]3C2)CC1,0%[70.6 µM]
Cc1cccc(NC(=O)Nc2ccc(C)n(CC(=O)NC(C)C)c2=O)c1,-2%
CCCS(=O)(=O)Nc1ccc2n(c1=O)C[C@H]1C[C@@H]2CN(C(=O)c2ccc(-c3ccccc3)cc2)C1,-14%
COc1ccc(-c2cc(N3CCC(NC(=O)c4ccc(C)cc4)C3)n[nH]2)cc1 (stereo unspecified),-2%
O=C(CC1CCCC1)NC1CCN(c2cnn(Cc3ccccc3)c(=O)c2)CC1,3%
COc1cc(SC)ccc1C(=O)N[C@H]1C[C@@](O)(C(=O)N[C@H]2CCCNC2=O)C[C@@H](O)[C@@H]1O,1%
O=C(C1CCOCC1)N1CCc2nc(OCC3CC3)ccc2C1,?
COc1cccc(CC2(CO)CCCN(c3ccc(-c4nccn4C)nn3)C2)c1 (stereo unspecified),-10%
CCn1c(C2CCCNC2)nn(Cc2csc(-c3ccccc3)n2)c1=O (stereo unspecified),-2%
COc1ccc(CN2CCc3nc(N(C)C)[nH]c(=O)c3CC2)c(OC)c1OC,5%
COCCNc1ncnc2c1CN(c1cccnc1)C(=O)CN2C,6%
COc1cccc(-c2cnc3[nH]cc(CC(N)=O)c3c2)c1,-19%[70.6 µM]
COc1ccc(-c2nnc3n2CCN(C(=O)c2ccccc2Cl)C3)cc1,1%
COc1ccc(C(=O)N2CCC3(CC2)N=C(c2cccc(Br)c2)NO3)c(OC)c1,11µM*
Cc1nc(C)c(CC(=O)NC2CCCN(C3CCCCCC3)C2)c(=O)[nH]1 (stereo unspecified),0%
Cc1ccc([S+](=O)([O-])N2CCC(c3nn(Cc4ccccc4)c(=O)[nH]3)CC2)cc1,-13%
O=C(CC1CCCC1)NCCc1noc(-c2cccnc2)n1,2%
C=CCNC(=O)N1CCOC(CN(CC(C)C)C(=O)c2cccc(OC)c2)C1 (stereo unspecified),4%

# Of the compounds above, these have a thiophene ring, fused or not.
SMILES,hNpr1 antagonist
O=C(c1nc(-c2ccsc2)c2cnccn12)N1CCCC1,14%[70.6 µM]
c1cncc(-c2nnc3n2CCN(Cc2ccsc2)C3)c1,-26%[70.6 µM]
Cc1ccsc1C(=O)NCc1nnc2ccc(-c3ccc(Cl)cc3)nn12,-3%
O=C([C@@H]1C[C@H](Oc2ccccc2)CN1C(=O)c1cccs1)N1CCOCC1,6%

# Carrying on:
SMILES,hNpr1 antagonist
CC(C)CNC(=O)c1nnn2c1COC(c1ccc(Br)cc1)C2 (stereo unspecified),-1%
Cn1nc(C2CCCN(C(=O)Cc3ccccc3)C2)n(Cc2ccccc2)c1=O (stereo unspecified),-2%
O=C1NC2(CCCN(C(=O)c3cccnc3)C2)Oc2ccccc21 (stereo unspecified),-4%[70.6 µM]
CCCn1nc(C)c(NC(=O)CC[C@H]2NC(=O)c3ccccc3NC2=O)c1C,0%
COc1ccc(CNC(=O)c2cccc3c2CCN3C(=O)c2ccc(F)cc2)cc1,-1%
COCCN1CCOC2(CCN([S+](=O)([O-])c3cccc(C)c3)CC2)C1=O,-1%[70.6 µM]
CCOc1ccc2c(n1)CCN(C(=O)COc1cccc(C)c1)C2,-28%
CC(C)C(=O)Nc1ccc(C2(C(=O)NC3CC3)CCCCC2)cc1,6%
Cc1noc(C)c1[S+](=O)([O-])N1CCc2nc(C(C)C)nc(-c3ccc(Cl)cc3)c2C1,-23%
CCN1c2cc(C(=O)N3CCN(c4ccccc4)CC3)ccc2C(=O)N2CCCCC21 (stereo unspecified),0%
CC(C)Oc1ccc(CNC(=O)C(C)C2CCOCC2)cc1 (stereo unspecified),-1%
CCc1nc(NC(c2ccccc2)c2ccco2)c2cnn(C)c2n1 (stereo unspecified),-4%
CC(=O)Nc1ccc(OCC(=O)N2CCc3ccccc3C2)nc1,4%
COCCN1C(=O)CC[C@]2(C(=O)NCc3ccc(F)c(Cl)c3)CCCC[C@@H]12,-10%

# Screens (PubChem BioAssay)
